Menin MLL FP FL = inhibitors of human menin-MLL interaction, wild-type MLL peptide | 290,000 tested, under 10 active | FP activity change, % at 61.4 µM | Fluorescence polarization, fluorescein-MLL peptide displacement from menin; inconclusive = falling polarisation curve, or a change in total fluorescence; inactive = total fluorescence flat and polarisation flat or rising; no compound was filed as active; the % refers to the polarisation; negative = inhibition;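 further: % of control where 0% means no effect; inhibitors lower the polarisation; unlabelled MLL peptide was the positive control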
gsp antagonist = antagonizes gsp, the McCune-Albright syndrome mutation; Potency, µM (titrated, usually from 76.9 µM), for the others: top-dose activity change, negative = inhibition, most hits filed as inhibitors; 0.4% of 340,000 active; AID 624288; gsp-mutant cells, cAMP HTRF, 30 min; control for the full effect not named in the record; active = falling curve of any shape with a large fitted effect; inconclusive = falling curve, mostly with a smaller effect; inactive = flat or rising curve; cell line not stated here;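 further: intracellular cAMP measured with PDE inhibitor Ro 20-1724 present during compound exposure; potency means the concentration at half of the fitted maximal effect; on the % scale 0 is the no-effect control and ±100 the full control effect; nearly all actives have a fitted effect of over 65% in size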
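Cells, 2000/well, grown 16–24 h in DMEM 10% FBS with 0.5 mg/ml G418, then compounds plus […] (300 uM addition stock), 30 min at 37C. cAMP read by HTRF (cAMP-d2 and anti-cAMP antibody-K in lysis buffer) after 30 min RT.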
ClpP mod = qHTS Assay for Activators of ClpP | Potency, µM (series often up to 57.5 µM), for the others: at the highest dose activity change, negative = active | ATP-dependent Clp protease proteolytic subunit (Bacillus subtilis (strain 168)), P80244 | 1.9% of 340,000 active | purified B. subtilis ClpP, FRET peptide cleavage, 20 min | AID 651965, 2013; active = well fitted falling curve with a large enough effect; inconclusive = small, poorly fitted or top-dose-only effect; inactive = no such curve, though single readings can be large or run the other way; further: potency means the concentration at half of the fitted maximal effect; the source files actives as falling curves though it sought activators and does not explain the sign; nearly all actives have a fitted effect of over 65% in size; many hits overshoot -100%
Target sequence (P80244 whole entry, looked up): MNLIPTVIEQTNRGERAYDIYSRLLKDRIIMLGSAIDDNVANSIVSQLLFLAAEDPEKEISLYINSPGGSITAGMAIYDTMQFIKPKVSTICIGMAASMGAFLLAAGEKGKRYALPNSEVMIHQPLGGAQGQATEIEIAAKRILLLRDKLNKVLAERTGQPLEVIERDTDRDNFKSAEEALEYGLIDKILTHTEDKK
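ClpP 10 microg/mL final, pH 8 Tris/KCl buffer with BSA, glycerol, Tween-20; compound pinned in; FRET-FV substrate; RT 20 min; Ex320/Em430; ΔFRET vs ADEP 5.8 microM, DMSO, no enzyme.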
TRPV1 potentiator = potentiators of human vanilloid receptor 1 (TRPV1) | Q8NER1 | TRPV1-expressing cells, Fluo-8 calcium influx, capsaicin EC20 potentiation; host cell line not named in the record; control for the full effect not named in the record | potentiation, % at 8.33 µM | 0.02% of 320,000 active; active means potentiation above 80%; inconclusive means 30% to 80%; inactive means below 30%; further: 0% is about no effect
Target sequence (Q8NER1 whole entry, looked up): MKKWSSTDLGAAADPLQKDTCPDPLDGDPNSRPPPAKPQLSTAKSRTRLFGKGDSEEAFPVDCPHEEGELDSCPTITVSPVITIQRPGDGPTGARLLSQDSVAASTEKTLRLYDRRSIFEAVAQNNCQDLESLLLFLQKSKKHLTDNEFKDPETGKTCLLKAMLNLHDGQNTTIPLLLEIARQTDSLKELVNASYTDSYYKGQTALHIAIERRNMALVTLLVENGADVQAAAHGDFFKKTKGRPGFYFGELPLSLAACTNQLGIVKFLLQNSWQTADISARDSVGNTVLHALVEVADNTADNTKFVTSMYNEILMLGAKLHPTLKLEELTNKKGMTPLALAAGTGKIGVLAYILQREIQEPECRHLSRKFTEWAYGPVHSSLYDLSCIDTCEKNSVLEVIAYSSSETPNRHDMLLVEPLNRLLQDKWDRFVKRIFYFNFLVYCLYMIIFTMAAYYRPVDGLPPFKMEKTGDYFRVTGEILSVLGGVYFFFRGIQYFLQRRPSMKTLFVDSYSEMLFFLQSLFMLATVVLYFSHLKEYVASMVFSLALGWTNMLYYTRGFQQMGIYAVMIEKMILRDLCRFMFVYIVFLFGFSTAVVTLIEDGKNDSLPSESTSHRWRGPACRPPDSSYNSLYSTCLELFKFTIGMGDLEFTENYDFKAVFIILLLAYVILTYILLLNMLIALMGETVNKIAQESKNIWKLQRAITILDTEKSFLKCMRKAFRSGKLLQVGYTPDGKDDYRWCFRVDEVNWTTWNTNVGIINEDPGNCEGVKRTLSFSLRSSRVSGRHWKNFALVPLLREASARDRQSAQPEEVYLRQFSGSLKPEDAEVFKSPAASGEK
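TRPV1-expressing cells were cultured overnight at 35.5C and loaded with Fluo-8 calcium dye for 40 to 90 min at room temperature. After a 10 s baseline, compound was added and calcium influx was read kinetically for 3 min (ex 480/em 520 nm).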
TRPML1 inh = inhibitors of human TRPML1 channel; Q9GZU1; TRPML1-inducible cells, Ca2+ dye fluorescence, FDSS; hits give low values; inhibition of EC80 agonist-evoked calcium signal; activity change, negative = inhibition, % (no concentration beside the values); 0.02% of 390,000 active; in the data active means activity change below about -50%; inconclusive means about -30% to -50%; inactive means above about -30%;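 further: stimulus is agonist 54-4 at its EC80 concentration; on the % scale 0 is the no-effect control and ±100 the full control effect; compound concentration not given in the record; the text of the record puts the active cut at -80%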
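Tet-induced TRPML1-DL cells loaded with Ca8 no-wash calcium dye were read kinetically on FDSS. Compound addition was followed by EC80 agonist 54-4 (4 uM final); inhibition was read over 110 s.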
Sfp inh = blocks B. subtilis Sfp PPTase activity; Q9F4F7; Biochemical Sfp PPTase activity, qHTS; Potency, µM, for the others: max response, negative = inhibition, hits mostly inhibitors; 3.5% of 310,000 active; active means well fitted inhibition curve with a large enough effect; inconclusive means small, poorly fitted or top-dose-only effect, or another doubt; inactive means no such curve, though single readings can be large or run the other way;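 further: the enzyme is Sfp with the accession as filed and its product quenches rhodamine fluorescence; potency means the concentration at half of the fitted maximal effect; 0% = enzyme reaction without inhibitor and -100% = no enzyme wells; top concentration of the series not given in the record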
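Sfp 15 nM + cpd, 15 min RT; start w/ rhodamine-CoA 5 uM, BHQ-2-YbbR 12.5 uM (final); 50 mM Hepes pH 7.6, 10 mM MgCl2, 0.01% NP-40, 0.01% BSA; read 525/598 nm at 0 and 30 min.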
gsp ag = gsp mutant agonism; gsp mutant cells, cAMP HTRF, 30 min; control for the full effect not named in the record; Potency, µM (highest dose often 76.9 µM), for inactives: top-dose activation (cAMP increase), hits mostly activators; 0.13% of 340,000 active; AID 624287; active = well fitted activation curve with a large enough effect; inconclusive = small, poorly fitted or top-dose-only effect, or another doubt; inactive = no such curve, though single readings can be large or run the other way; cell line not stated here;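 further: phosphodiesterase inhibitor Ro 20-1724 added with compounds to block cAMP breakdown; potency means the concentration at half of the fitted maximal effect; nearly all actives have a fitted effect of over 60% in size; about a fifth of the inactives were tested at one dose only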
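Cells stably selected in G418 were plated at 2000/well, grown 16-24 hr, then given compounds in DMSO with the PDE inhibitor […] (300 uM solution added) for 30 min at 37C; cAMP was read by HTRF.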
* = called active by the depositor; ? = inconclusive; . = no result given; & = joins results of further samples; [ ] = another dose, or the depositor's remark.

SMILES | Menin MLL FP FL | gsp antagonist | ClpP mod | TRPV1 potentiator | TRPML1 inh | Sfp inh | gsp ag
CC(C)C(NC(=O)c1ccc(F)cc1)C(=O)NC1(C)CCS(=O)(=O)C1 (stereo not drawn) | . | 7% | 0.1% | -4 | -6 | . | -13%
CCCCNC(=O)c1sc(=S)n2c1[nH]c(=O)c1ccc(C(=O)NCCc3ccc(OC)c(OC)c3)cc12 | . | 35µM* | -2.2% | 7 | 17 | 12% | ?
CCC(=O)Nc1cccc(-n2nnnc2SCC(=O)N2CCCCC2)c1 | 7.8 | -2% | 0.9% | -1 | -27 | 5% | -9%
O=C(CN1CCCCCC1)Nc1cccc(NC(=O)CN2CCCCCC2)c1 | -6.8 | 8% | -2.9% | 22 | -6 | 5% | -1%
O=C(Cc1cccc(NC(=O)C2CCN(C(=O)c3ccccc3)CC2)c1)Nc1cccc(C(=O)N2CCCCC2)c1 | . | 16% | 0.1% | . | -6 | . | .
CN(C(=O)c1ccc(OC2CCN(CCc3ccccc3)CC2)cc1)C1CCCCC1 | -5.6 | 11% | 2.5% | 0 | -19 | 21% | -21%
Cc1cc(Nc2ccccc2)c2c([N+](=O)[O-])ccc(C)c2n1 | 2.0 | -12% | . | 0 | 10 | ? | 15%
CCOc1cc(/C=N/O)cc(Br)c1OCc1ccc(Cl)cc1 | 3.8 | -17% | -2.3% | -8 | 7 | 16% | ?
CCC(NC(=O)NNC(=O)c1ccncc1)(C(F)(F)F)C(F)(F)F | 1.4 | -29% | 0.7% | -4 | -9 | -4% | 4%[15.4 µM]
C[C@H](NC(=O)c1ncn(C)c1C(=O)N[C@@H](C)c1ccccc1)c1ccccc1 | . | -9% | 1.5% | . | 20 | . | 14%
O=Cc1cccn1-c1cccc([N+](=O)[O-])c1 | 2.7 | 12% | . | -11 | 4 | ? | 4%[15.4 µM]
O=C(Nc1ccccc1)Nc1nc(-c2ccccc2)cs1 | -1.1 | 1% | 0.4% | -10 | -4 | 15% | -18%
O=C(Cc1c(F)cccc1Cl)NC1=NCCS1 | 3.0 | 9% | . | 10 | -6 | 15% | 13%
Cc1nn(CC(=O)NNC(=S)NCC2CCCO2)c(C)c1Br (stereo not drawn) | . | 3% | -0.1% | -17 | -12 | 4% | 0%
COC(=O)c1ccc(CNC(=O)c2ccc3oc(C(C)C)nc3c2)cc1 | . | 7% | -2.9% | -10 | 12 | 14% | -6%[15.4 µM]
C=CCOc1nc2c(c(=O)n(C)c(=O)n2C)n1Cc1c(Cl)cccc1Cl | -0.4 | 4% | 0.5% | 3 | 0 | -9% | -12%
COc1cc(Cl)c(C)cc1NC(=O)COc1ccc(C)nc1[N+](=O)[O-] | . | 4% | 1.4% | 6 | 20 | . | 2%[15.4 µM]
O=C(c1cccc(S(=O)(=O)NCc2ccccc2)c1)N1CCN(c2cccc(C(F)(F)F)c2)CC1 | . | -11% | -24% | -20 | 1 | 4% | -13%[15.4 µM]
COc1ccc(OC)c(C(=O)NC(CC(N)=O)c2ccc(N3CCN(c4ccccc4)CC3)c([N+](=O)[O-])c2)c1 (stereo not drawn) | -0.6 | -17% | -27% | 10 | 2 | 11% | .
C=CCn1c(C)cc(C(=O)CSc2nc(N)cc(N)n2)c1C | -1.3 | -2% | -1.3% | 8 | -8 | -6% | 18%
O=C(NCCCCCCNC(=O)c1cncc(O)c1)c1cncc(O)c1 | -5.6 | 12% | . | 3 | 12 | -16% | -12%[15.4 µM]
CCOC(=O)c1c(-c2ccccc2)oc2ccc(OC(C)C(=O)O)cc12 (stereo not drawn) | 0.6 | ? | . | 0 | -8 | 24% | ?
COc1ccccc1-c1cc(C(=O)NCCCn2ccnc2)no1 | 5.6 | 7% | ? | -10 | -8 | 3% | -17%
CSCc1ccc(C(=O)Nc2cc(C)cc(C)c2)cc1 | 5.9 | -7% | 0.6% | -11 | 31 | -2% | -5%
CC(C)Cn1cnc2sc3c(c2c1=N)CCCC3 | ? | -10% | -3.6% | -5 | 21 | 0% | -20%
CCN(C(=O)COC(=O)CCCN1C(=O)c2cccc3cccc(c23)C1=O)C1CCS(=O)(=O)C1 (stereo not drawn) | . | -4% | 28µM* | 4 | 9 | . | 3%[15.4 µM]
COc1ccc(S(=O)(=O)N2CCN(C(=O)C3CCC3)CC2)cc1 | . | -1% | . | 2 | 5 | . | 12%[15.4 µM]
Cc1cc(CNC(=O)C2CCC(=O)N(Cc3ccccc3F)C2)on1 (stereo not drawn) | -6.3 | 7% | -2.7% | 5 | 2 | -2% | -77%[inhibitor]
CCOc1ccccc1NC(=O)C1CCN(C(=O)NCc2ccccc2)CC1 | 0.4 | 7% | -0.7% | -9 | -14 | -21% | -5%
COc1ccc(N2CCN(c3ncnc4c3[nH]c3ccccc34)CC2)cc1 | -1.1 | 16µM* | 0.3% | 16 | 6 | -12% | 14%
CCn1cc(C(=O)NCCCOC(C)C)c(=O)c2cc(S(=O)(=O)N3CCOCC3)ccc21 | . | -8% | -9.0%&1.0% | 11 | 15&-16 | 14% | 11%
O=C(NC(Cc1ccccc1)c1ccc2c(c1)OCCCO2)c1ccccc1F (stereo not drawn) | -0.3 | -12% | 0.9% | -5 | 1 | -1% | -48%[inhibitor]
Cc1ccc(NCCC(=O)c2ccc(Br)cc2)cc1 | 3.6 | 16% | -0.9% | -10 | 14 | 13% | -2%
Cc1cccc(NS(=O)(=O)c2ccc(C)c(C(=O)NCC(c3ccco3)N3CCCCC3)c2)c1 (stereo not drawn) | . | -1% | 2.3% | -5 | -10 | . | -6%
C=CCn1c(SCc2nc(N)nc(N(C)C)n2)nnc1-c1cccnc1 | -2.1 | 7% | -3.1% | 1 | -6 | 16% | 14%
CCOc1ccc(S(=O)(=O)N(CC)CC(=O)NC2CC2)cc1 | . | 4% | -1.6% | ? | 2 | 11% | 21%
Cc1cc(C)cc(S(=O)(=O)c2cnc3ccccc3n2)c1 | -1.1 | . | . | -4 | 8 | -18% | 11%[15.4 µM]
Cc1cccc(C)c1N(CC(=O)N1CCCC1)S(C)(=O)=O | 2.6 | -6% | -0.7% | 1 | -26 | 13% | 6%[15.4 µM]
CCOC(=O)N/N=C/c1ccc(N2CCOCC2)s1 | 3.3 | ? | -18% | 0 | -1 | -21% | 23%
COCc1[nH]nc2c1C(c1ccc(OC)cc1)C(C#N)=C(N)O2 (stereo not drawn) | 3.3 | 4% | -2.1% | 12 | 15 | 31%[activator] | 8%
O=C(NCCCn1ccnc1)c1cc(C(=O)C2CC2)c[nH]1 | -0.5 | -4% | -0.6% | . | -7 | 24% | -4%
O=C(Nc1ccc(Oc2ccc(C(F)(F)F)cn2)c(Cl)c1)C1CC1 | 5.5 | -16% | . | 4 | 19 | 8% | -1%[15.4 µM]
COc1cc(Cl)cc(/C=N/NC(N)=O)c1O | 4.4 | 3% | . | 7 | -10 | ? | 15%[15.4 µM]
O=C(Cn1c(=O)sc2ccccc21)Nc1ccccc1 | -1.0 | -8% | -1.7% | -10 | -16 | 5% | -1%
CO/N=C(\Cn1ncc(N2CCCC2)c(Cl)c1=O)c1ccc(Cl)cc1 | 0.5 | 2%[15.4 µM] | -0.8% | -12 | -15 | 3% | 0%
CCCOc1ccc2ccccc2c1/C=N/n1c(C)nnc1-n1nc(C)cc1C | 2.1 | -4% | -3.4% | -14 | 2 | -1% | 27%
CCOc1cc(C(N)=O)cc(Br)c1OCC | 3.8 | 1% | 0.5% | 0 | 2 | ? | 9%
Cc1ccc(C)c(-c2csc(-c3cccnc3)n2)c1 | 0.2 | 0% | -8.7% | -4 | -4 | -7% | ?
O=C(Cc1cccc(C(F)(F)F)c1)Nc1cccc(S(=O)(=O)N2CCCC2)c1 | -0.1 | -2% | 1.3% | 0 | 11 | 11% | -55%[inhibitor]
CN1CCOCCOCCN(C)C1=O | -0.6 | 14% | -1.9% | -6 | 27 | 14% | ?
The list continues:
SMILES | Menin MLL FP FL | gsp antagonist | ClpP mod | TRPV1 potentiator | TRPML1 inh | Sfp inh | gsp ag
CSCC[C@H](NC(=O)[C@@H]1Cc2ccccc2CN1)C(=O)NC(C)c1ccccc1 (stereo partly drawn) | 3.4 | 2% | -2.5% | 5 | -5 | 5% | 29%
Cc1cc2nnc(SCCCCN3C(=O)c4ccccc4C3=O)n2c2ccccc12 | 4.9 | . | . | 6 | . | 9% | .
O=C(Cn1c(=O)oc2ccc(Cl)cc21)NC1CCCCC1 | . | 6% | 0.4% | -21 | -10 | 10% | -4%
COc1cccc(N(C(=O)c2cccs2)c2nc3ccccc3s2)c1 | 1.4 | -3% | ? | 14 | -2 | -1% | -1%
CCCC(C(=O)NC(C)(C)C)N(Cc1ccccc1)C(=O)c1snc(C(N)=O)c1N (stereo not drawn) | . | . | -22% | . | 20 | . | -94%[inhibitor]
CCOC(=O)N1CCC(N(CCN(C)C)C(=S)Nc2ccccc2OC)CC1 | -1.6 | 4% | -0.5% | -8 | 25 | 9% | ?
O=C(NCCc1ccc(F)cc1)c1ccc2nccnc2c1 | . | -8% | -6.5% | -4 | 4 | . | -11%
N=c1n(Cc2ccccc2)c2ccccc2n1CC(O)COc1ccc(Cl)cc1Cl (stereo not drawn) | -4.6 | 13% | . | -1 | -19 | 18µM* | 7%[15.4 µM]
Cc1cc(C(=O)OCC(=O)N2CCCCCC2)ccc1[N+](=O)[O-] | . | 6% | 1.1% | -13 | 4 | . | 12%
Cc1cc(=O)[nH]c(N2CCN(C(c3ccccc3)c3ccccc3)CC2)n1 | 4.8 | 4% | 2.1% | -7 | 0 | 5% | -17%
Nc1nc(N2CCCCC2)nc(N(c2ccccc2)c2ccccc2)n1 | 1.5 | -2% | -1.2% | 5 | 4 | 14% | -1%
CCN(CCC(=O)Nc1ccc(Br)c(C)c1)Cc1ccccc1 | 3.1 | 4% | -2.0% | -3 | 14 | -3% | 18%
